ClpP mod – qHTS Assay for Activators of ClpP; ATP-dependent Clp protease proteolytic subunit (Bacillus subtilis (strain 168)), P80244; purified B. subtilis ClpP, FRET peptide cleavage, 20 min; Potency, µM (top dose mostly 57.5 µM), inactives show at the highest dose activity change, negative = active; hit rate 1.9% among 340,000; AID 651965, 2013; active = well fitted falling curve with a large enough effect; inconclusive = small, poorly fitted or top-dose-only effect; inactive = no such curve, though single readings can be large or run the other way; note: potency is the fitted concentration of half-maximal effect; the source files actives as falling curves though it sought activators and does not explain the sign; nearly all actives have a fitted effect of over 65% in size; many hits overshoot -100%
Target sequence (P80244 whole entry, looked up): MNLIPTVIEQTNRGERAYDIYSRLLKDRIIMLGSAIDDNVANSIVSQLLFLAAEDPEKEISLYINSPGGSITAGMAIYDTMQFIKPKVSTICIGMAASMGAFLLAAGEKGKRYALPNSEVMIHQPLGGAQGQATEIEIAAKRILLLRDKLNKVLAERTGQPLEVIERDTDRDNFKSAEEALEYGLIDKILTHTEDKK
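ClpP 10 microg/mL final, pH 8 Tris/KCl buffer with BSA, glycerol, Tween-20; compound pinned in; FRET-FV substrate; RT 20 min; Ex320/Em430; ΔFRET vs ADEP 5.8 microM, DMSO, no enzyme.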
TRPML1 inh – qHTS for Inhibitors of the Human Mucolipin Transient Receptor Potential 1 (TRPML1); AID 624415, 2012; TRPML1-inducible cells, Ca2+ dye fluorescence, FDSS; stronger effect = lower value; inhibition of EC80 agonist-evoked calcium signal; activity change, negative = inhibition, % (test concentration not listed); hit rate 0.02% among 390,000; Mucolipin-1 (Homo sapiens), Q9GZU1; in the data active means activity change below about -50%; inconclusive means about -30% to -50%; inactive means above about -30%;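 note: stimulus is agonist 54-4 at its EC80 concentration; % is set by controls: 0 for no effect and ±100 for the full control effect; compound concentration not given in the record; the text of the record puts the active cut at -80%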
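TRPML1-DL cells, Tet-induced overnight (~16 h, 37 °C) at 1,500 cells/well, were loaded with Ca8 no-wash dye plus quencher for 45-90 min at room temperature. Compounds were pinned during FDSS kinetic reading; agonist 54-4 at EC80 (4 uM final) then added.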
Menin MLL FP FL – qHTS Assay for Inhibitors Targeting the Menin-MLL Interaction in MLL Related Leukemias: Competition With Fluorescein Labeled MLL-derived Peptide; 290,000 tested, under 10 active; Fluorescence polarization, fluorescein-MLL peptide displacement from menin; FP activity change, % at 61.4 µM; AID 1766, 2009; inconclusive = falling polarisation curve, or a change in total fluorescence; inactive = total fluorescence flat and polarisation flat or rising; no compound was filed as active; the % refers to the polarisation; negative = inhibition;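 note: % of control where 0% means no effect; inhibitors lower the polarisation; unlabelled MLL peptide was the positive control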
TRPV1 potentiator – HTS Assay for Compounds that Act as Potentiators of the Vanilloid Receptor 1 | AID 540277, 2011 | potentiation, % at 8.33 µM | TRPV1-expressing cells, Fluo-8 calcium influx, capsaicin EC20 potentiation; host cell line not named in the record; control for the full effect not named in the record | hit rate 0.02% among 320,000 | Transient receptor potential cation channel subfamily V member 1 (Homo sapiens), Q8NER1; active means potentiation above 80%; inconclusive means 30% to 80%; inactive means below 30%; note: 0% is about no effect
Target sequence (Q8NER1 whole entry, looked up): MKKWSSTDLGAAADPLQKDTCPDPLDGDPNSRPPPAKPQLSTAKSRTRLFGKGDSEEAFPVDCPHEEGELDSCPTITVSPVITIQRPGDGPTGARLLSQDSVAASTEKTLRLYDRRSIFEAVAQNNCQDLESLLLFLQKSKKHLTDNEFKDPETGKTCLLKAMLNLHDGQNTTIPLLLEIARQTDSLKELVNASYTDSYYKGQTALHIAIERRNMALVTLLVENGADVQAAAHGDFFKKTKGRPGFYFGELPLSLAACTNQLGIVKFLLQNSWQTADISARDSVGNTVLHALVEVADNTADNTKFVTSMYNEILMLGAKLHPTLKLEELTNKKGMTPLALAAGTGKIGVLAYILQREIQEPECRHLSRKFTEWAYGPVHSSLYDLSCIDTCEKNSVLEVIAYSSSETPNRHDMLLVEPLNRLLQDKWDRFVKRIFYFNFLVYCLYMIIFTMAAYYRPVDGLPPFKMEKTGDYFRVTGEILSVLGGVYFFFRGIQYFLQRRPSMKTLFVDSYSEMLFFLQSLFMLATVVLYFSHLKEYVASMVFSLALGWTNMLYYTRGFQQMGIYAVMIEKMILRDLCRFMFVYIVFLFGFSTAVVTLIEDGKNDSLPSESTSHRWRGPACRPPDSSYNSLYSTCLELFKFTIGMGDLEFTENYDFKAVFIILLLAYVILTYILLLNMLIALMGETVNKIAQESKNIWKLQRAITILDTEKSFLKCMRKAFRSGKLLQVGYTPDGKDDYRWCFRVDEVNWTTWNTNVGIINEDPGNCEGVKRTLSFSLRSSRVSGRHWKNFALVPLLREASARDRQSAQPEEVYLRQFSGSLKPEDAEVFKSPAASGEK
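TRPV1-expressing cells were cultured overnight at 35.5C and loaded with Fluo-8 calcium dye for 40 to 90 min at room temperature. After a 10 s baseline, compound was added and calcium influx was read kinetically for 3 min (ex 480/em 520 nm).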
Sfp inh – qHTS Assay for Inhibitors of Bacillus subtilis Sfp phosphopantetheinyl transferase (PPTase); Biochemical Sfp PPTase activity, qHTS; Potency, µM, for the others: max response, negative = inhibition, hits mostly inhibitors; hit rate 3.5% among 310,000; AID 1490, 2009; active = well fitted inhibition curve with a large enough effect; inconclusive = small, poorly fitted or top-dose-only effect, or another doubt; inactive = no such curve, though single readings can be large or run the other way;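 note: the enzyme is Sfp with the accession as filed and its product quenches rhodamine fluorescence; potency is the fitted concentration of half-maximal effect; 0% = enzyme reaction without inhibitor and -100% = no enzyme wells; top concentration of the series not given in the record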
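Buffer: 50 mM Hepes-Na pH 7.6, 10 mM MgCl2, 0.01% Nonidet P-40, 0.01% BSA. Enzyme 15 nM, pre-exposed to compound 15 min; substrates then added and fluorescence change tracked over 30 min.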
gsp antag – qHTS for Antagonists of gsp, the Etiologic Mutation Responsible for Fibrous Dysplasia/McCune-Albright Syndrome: qHTS; AID 624288, 2012; hit rate 0.4% among 340,000; Potency, µM (titrated, usually from 76.9 µM), for inactives: top-dose activity change, negative = inhibition, actives largely listed as inhibitors; gsp-mutant cells, cAMP HTRF, 30 min; control for the full effect not named in the record; active = falling curve of any shape with a large fitted effect; inconclusive = falling curve, mostly with a smaller effect; inactive = flat or rising curve; cell line not stated here;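 note: intracellular cAMP measured with PDE inhibitor Ro 20-1724 present during compound exposure; potency is the fitted concentration of half-maximal effect; % is set by controls: 0 for no effect and ±100 for the full control effect; nearly all actives have a fitted effect of over 65% in size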
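Cells in G418 medium, seeded 16-24 h, 37C; buffer exchange to DPBS + 1 mM CaCl2, 0.5 mM MgCl2, 0.05% BSA; cpds in DMSO + […] (300 uM stock), 30 min 37C; HTRF cAMP detection.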
gsp agonist – qHTS for Agonist of gsp, the Etiologic Mutation Responsible for Fibrous Dysplasia/McCune-Albright Syndrome: qHTS. gsp mutant cells, cAMP HTRF, 30 min; control for the full effect not named in the record. Potency, µM (highest dose often 76.9 µM), without a hit: at the top dose activation (cAMP increase), hits mostly activators. hit rate 0.13% among 340,000. AID 624287, 2012; active = well fitted activation curve with a large enough effect; inconclusive = small, poorly fitted or top-dose-only effect, or another doubt; inactive = no such curve, though single readings can be large or run the other way; cell line not stated here;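 note: phosphodiesterase inhibitor Ro 20-1724 added with compounds to block cAMP breakdown; potency is the fitted concentration of half-maximal effect; nearly all actives have a fitted effect of over 60% in size; about a fifth of the inactives were tested at one dose only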
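Cells stably selected in G418 were plated at 2000/well, grown 16-24 hr, then given compounds in DMSO with the PDE inhibitor […] (300 uM solution added) for 30 min at 37C; cAMP was read by HTRF.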
An asterisk follows results filed as active; ? = inconclusive; · = not tested or not shown; & = joins results of further samples; [ ] = another dose, or the depositor's remark.

SMILES	ClpP mod	TRPML1 inh	Menin MLL FP FL	TRPV1 potentiator	Sfp inh	gsp antag	gsp agonist
COc1ccc(-n2cc(-c3ccccc3)[n+]3c2CCCCC3)cc1	·	9.0	3.4	-6.3	7.4%	4.9%	-27.9%
Cc1nn(-c2cc(N3CCCCCC3)ccc2[N+](=O)[O-])c(=O)c2ccccc12	4.0%	3.5	1.9	-1.6	0.7%	-7.2%	-19.7%
COC(=O)[C@]1(Cc2ccccc2)N[C@H](CN(C)C(=O)Nc2ccc(F)cc2)[C@@H]2C(=O)N(C)C(=O)[C@@H]21	1.9%	-3.4	·	·	·	6.6%	·
Cc1cc(C(F)F)n2nc(C(=O)Nc3ccc(S(=O)(=O)N4CCCCCC4)cc3)nc2n1	277.9%	3.0	·	·	·	-3.5%	10.8%
Cn1cnnc1SCC(=O)Nc1ccccc1F	1.2%	-12.1	-0.5	5.3	22.5%	3.1%	-2.3%
O=C(/C=C/c1ccc([N+](=O)[O-])cc1)NCc1ccco1	1.4%	-7.5	-0.5	-6.1	-7.1%	4.1%	22.0%
CN(CCO)c1nc(N)c(C#N)c(CC#N)c1C#N	·	-5.3	1.3	5.3	11.4%	2.7%	5.9%[15.4 µM]
CSc1ncccc1C(=O)OCC(=O)N1CC2(C)CC1CC(C)(C)C2 (stereo not given)	0.4%	3.4	·	·	·	-6.8%	2.9%[15.4 µM]
CCOc1ccc(NC(=O)C/C(C)=N/NC(=O)COc2ccc(Br)cc2C)cc1	·	6.5	·	2.0	21.0%	-3.5%	-3.0%[15.4 µM]
CCS(=O)(=O)c1ccc(O)c(NC(=O)Nc2cccc3ccccc23)c1	·	-1.6	1.5	23.7	-3.6%	-20.5%	-3.1%
Cc1cc(C)nc(NN2C(=O)/C(=C/c3ccccc3)SC2=S)n1	4.3%	24.5	4.1	-5.2	31.6µM*	5.2%	-47.1%
COC(=O)/C=C/c1ccc(-n2ccnc2)cc1	·	8.9	0.0	15.3	-20.2%	4.0%	-1.4%[15.4 µM]
CCCCNC(=O)c1cc2c(=O)n3cccc(C)c3nc2s1	3.8%&3.7%	-9.0&-5.9	0.0	8.8	8.5%	3.7%	?
O=C1CCCN2N=C(SCC(=O)Nc3ccc(Br)cc3)SC2=N1	-3.2%	16.2	-2.8	8.1	14.0%	8.9%	8.1%
Cn1c(-c2nnn(-c3ccc(F)cc3)n2)cc2ccccc21	·	·	0.2	3.4	12.1%	·	·
CCCCc1nc2ccccc2[nH]1	·	17.1	4.6	-16.0	11.9%	4.0%	4.3%[15.4 µM]
Cc1ccc(NC(=O)C2CCN(S(=O)(=O)c3cc([N+](=O)[O-])ccc3Cl)CC2)nc1	-3.2%	9.3	·	·	·	?	-7.8%
O=c1[nH]nnc2c1sc1nc(N3CCOCC3)c3c(c12)CCCC3	·	-10.0	·	·	·	-5.1%	-7.4%[15.4 µM]
COc1ccc(Cl)cc1N(C(C)=O)c1nc(C)cc(C)c1C#N	0.3%	24.9	-0.2	14.3	13.8%	0.3%	-20.4%
CN(Cc1c(C(=O)N/N=C/c2ccccc2)nnn1-c1nonc1N)c1ccccc1	-2.8%	19.9	0.0	-1.2	8.7%	-11.4%	?
Cc1cc(C)n2nnnc2n1	·	-11.6	1.9	-17.8	8.7%	1.3%	10.7%[15.4 µM]
O=C(O)C(Cc1c[nH]c2ccccc12)N1C(=O)c2ccccc2C1=O (stereo not given)	0.4%	2.0	0.7&4.6	-12.4&-1.4	18.5%&19.1%	11.6%	-47.7%[inhibitor]
O=C(CCc1ccccc1)c1nnc(-c2ccccc2)o1	·	3.9	1.4	-17.6	-13.7%	-9.5%	1.2%
Cc1ccc(-n2nc3ccc(NC(=O)/C=C/c4ccco4)cc3n2)cc1	28.2µM*	-4.7	5.4	2.0	?	2.8%	-8.7%[15.4 µM]
Cc1cc2oc(=O)cc(-c3ccccc3)c2c(C)c1-c1ccc(C(F)(F)F)cc1	-6.3%	-10.2	1.4	·	-5.5%	9.8%	·
NC(=S)N=Nc1c(O)n(Cc2ccc(F)cc2)c2ccccc12	2.2%	3.9	2.0	-2.3	-9.6%	-0.3%	36.4%
CSc1ccccc1NC(=O)COc1nsnc1N1CCOCC1	·	-5.3	-5.5	-13.7	12.1%	-1.4%	-28.4%
Cc1ccc2nc3n(c(=O)c2c1)CCCCC3	-1.1%	-0.5	-0.6	-2.8	3.3%	14.4%	-4.9%
O=C(N/N=C/c1ccc(O)cc1)Nc1cccc2nsnc12	·	0.4	-1.5	-2.0	-26.9%	?	-0.1%[15.4 µM]
O=C(Nc1cccnc1)c1cccnc1Cl	0.2%	16.2	1.9	-4.4	6.9%	-1.4%	15.5%
CCCCn1nnnc1SCC(=O)c1cc(Cl)ccc1OC	1.3%	20.4	?	-19.2	-18.1%	7.9%	-40.8%[inhibitor]
CCS(=O)(=O)n1nc(-c2ccccc2)nc1NCc1ccco1	-0.6%	20.6	6.0	6.6	12.7%	-7.0%	-19.7%
CCOc1ncccc1C(=O)Nc1cc(S(=O)(=O)N(CC)CC)ccc1N1CCOCC1	-7.0%	-6.6	·	·	·	-3.2%	?
Cc1ccccc1NC(C)C(=O)N/N=C/c1ccccc1OCc1cccc(Br)c1 (stereo not given)	-11.5%	6.0	1.4	2.4	14.8%	-0.5%	?
COc1ccc(C(C(=O)NC(C)(C)C)N(C(=O)CCC(=O)Nc2cc(C)on2)c2ccccc2F)cc1 (stereo not given)	·	22.3	5.0	17.9	13.8%	-6.0%	-0.6%[15.4 µM]
CCC(c1nnnn1CCc1ccccc1)N1CCN(c2ccc(OC)cc2)CC1 (stereo not given)	-3.1%	6.3	-2.7	-3.3	1.6%	-12.1%	-17.7%
CCOc1ccc(CCNC(=O)CS(=O)(=O)Cc2nc(-c3ccc(OC)cc3)oc2C)cc1	-18.0%&-8.4%	6.2&5.7	2.6	12.7	7.2%	9.5%	17.4%
COC(=O)c1ccc(NC(=O)CN2CCN(c3ccc(Cl)cc3)CC2)cc1	0.3%&-1.3%	6.5&-20.8	6.7	5.8	2.2%	-1.5%	0.7%
CC(C)(CSc1ccccn1)NS(=O)(=O)c1ccccc1	-0.7%	22.7	-0.7	-3.7	11.4%	2.1%	-1.9%
CCN(CC)S(=O)(=O)c1cccc(C(=O)Nc2ccc3c(c2)OCO3)c1	·	8.9	-0.8	-11.5	4.1%	-9.9%	-36.9%[inhibitor]
COCCn1c(COC)nc2ccccc21	0.8%	-11.0	2.7	5.8	0.9%	3.8%	-0.6%
Cc1ccc(NC(=O)CC2(CC(=O)O)CCCC2)cc1	-0.5%	5.9	3.3	-3.6	11.1%	-2.5%	-14.9%[15.4 µM]
CN(C)CCCn1c2c(c(SCC(=O)Nc3cccc4ccccc34)nc1=O)CCCC2	-0.7%	-3.6	·	-16.7	·	14.2%	-2.6%[15.4 µM]
CCC1CCCCN1C(=O)c1ccc(OC2CCN(Cc3ccccn3)CC2)cc1 (stereo not given)	-1.3%	-5.9	·	21.7	4.1%	-2.3%	20.8%[15.4 µM]
O=[N+]([O-])c1ccc(S(=O)(=O)Nc2nc3ccccc3nc2Nc2ccccc2)cc1	·	-0.3	-3.6	3.7	9.7%	0.2%	1.2%[15.4 µM]
CCOC(=O)c1c(NC(=O)C2CC(Cl)=CCC2C(=O)O)sc2c1CC(C)(C)OC2 (stereo not given)	·	-2.8	0.6	4.8	-17.0%	14.1µM*	22.8%[15.4 µM]
O=C(O)c1[nH]c2ccccc2c1C(c1cc(Cl)cc([N+](=O)[O-])c1O)c1c(C(=O)O)[nH]c2ccccc12	·	-5.5	-4.0	-3.6	-2.0%	7.7%	1.7%
COc1ccc(C(=O)Nc2ccc3cn[nH]c3c2)c(OC)c1	·	-0.5	-0.4	13.9	17.3%	12.4%	2.9%[15.4 µM]
COc1ccc(N2CCN(S(=O)(=O)c3c(C)n(C)c(=O)n(C)c3=O)CC2)cc1	-0.6%	?	·	10.9	5.4%	7.3%	19.1%
O=C(c1ccccc1-c1ncc[nH]1)N1CCc2c([nH]c3ccccc23)C1c1ccccn1 (stereo not given)	·	-10.9	-3.0	11.3	1.0%	-7.0%	1.9%[15.4 µM]
CC(NCc1ccc(S(N)(=O)=O)cc1)C(=O)N1CCc2ccccc21 (stereo not given)	-0.1%	-7.5	-1.1	1.2	4.0%	9.7%	2.6%
COc1ccc(CCNC(=O)COc2ccc(S(=O)(=O)NCC(C)C)cc2Cl)cc1OC	-1.3%	-5.4	7.3	17.5	6.2%	-2.6%	-4.1%[15.4 µM]
CCCN1CCC(CCOc2ccccc2)(C(=O)OCC)CC1	0.9%	1.2	1.6	0.7	-1.0%	5.7%	-16.4%
Cc1ccc(NS(=O)(=O)c2cccc(C(=O)Nc3cc(C)on3)c2)cc1	-6.2%	23.3	0.7	3.0	21.2%	-13.1%	-3.7%
COC(=O)c1ccccc1NC(=O)C(C)n1nc(C)c2c(C)n(-c3ccccc3)nc2c1=O (stereo not given)	-15.7%	-14.0	·	22.5	-5.8%	-13.4%	1.3%
COc1cc2c(cc1NC(=O)COC(=O)c1ccccc1)oc1ccccc12	·	·	-4.7	-2.7	7.6%	·	·

Compound activity: PubChem, National Center for Advancing Translational Sciences (NCATS)
